BJeLR lethal – MLPCN primary cell-based screen for lethality selective to Ras in HRASV12 cells | inhibition, % (test concentration not listed) | BJeLR (HRASV12) viability, CellTiter-Glo ATP luminescence, 48 h; reference of the scale not given here | AID 1554, 2009 | actives 0.17% (n = 300,000);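 active means replicate mean above 50%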;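 further: 50 nL library stock added to about 25 µL; numbers are from one replicate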
Starred values were filed as active, the others as inactive. The list is partial, so the mix of outcomes need not match the whole.

SMILES	BJeLR lethal
CC(=O)Nc1ccc(/C(C)=N\NC(=O)c2ccc(-c3ccccc3)cc2)cc1	-6
COc1ccc(/C=N/NC(=S)Nc2ccccc2)cc1COc1ccccc1F	5
COC(=O)CCCC1=CC2=CC(=O)C(C)(OC(=O)c3ccc(Cl)nc3)C(=O)C2=CO1 (stereo unspecified)	1
COc1ccc(NC(=O)C2CC(=O)N/C(=N/N=C/c3ccco3)S2)cc1 (stereo unspecified)	-2
O=C(N/N=C/c1ccccc1O)c1cc(=O)[nH]c2ccccc12	-8
O=c1oc2c(Cl)cc(Cl)cc2cc1-c1nnc(Nc2ccccc2F)s1	-8
Cc1ccc(C2C(C#N)=C(N)SC(N)=C2C#N)o1	4
O=C(c1cc2c(=O)n3ccccc3nc2s1)N1CCc2ccccc2C1	1
O=C(N/N=C/c1ccc2c(c1)OCO2)C(=O)Nc1ccc2ccccc2c1	-5
COC/C=C/C1=CC2=CC(=O)C(C)(O)C(=O)C2=CO1 (stereo unspecified)	3
O=C(Cc1nc2ccccc2s1)c1ccc(O)cc1O	8
C/C(=N\Nc1nc2ccc(Cl)cc2o1)c1ccccc1	-17
CCC(=O)N1Cc2ccccc2-c2ccccc2C1=O	-2
COC(=O)C1=C(C(=O)OC)[C@@H]2N(C)c3ccc(OC)cc3[C@@]23C[C@@H](C(=O)OC)N(C(=O)C2CCC2)C3=N1	-8
C=C1C(=O)O[C@@H]2C[C@@H](C)[C@@H]3C=CC(=O)[C@@]3(C)[C@@H](OC(C)=O)[C@H]12	-18
COC(=O)[C@H](Cc1ccccc1)NC(=O)O[C@@H]1C(=O)c2cc(Br)ccc2O[C@H]1c1cccc(OC)c1	-2
CN(c1ccccc1)c1ccc(/C=c2\s/c(=C(/C#N)C(=O)C(C)(C)C)n(Cc3ccco3)c2=O)cc1	-1
COc1ccc(Nc2nc(NCc3ccco3)nc(N)c2[N+](=O)[O-])cc1	14
O=[N+]([O-])c1cc(-c2ccc([As](=O)(O)O)cc2)ccc1[As](=O)(O)O	-7
COc1ccc(O[C@H]2C=C[C@@H](c3ccccc3)O[C@@H]2COC(=O)CC/C(C)=N/OC[C@@H](O)[C@H]2O[C@@H]3OC(C)(C)O[C@@H]3[C@H]2O)cc1	5
CC[C@H]1OC(=O)C[C@@H](O)[C@H](C)[C@@H](O[C@@H]2O[C@H](C)C[C@H](N(C)C)[C@H]2O)[C@@H](CC=O)C[C@@H](C)C(=O)C=C[C@]2(C)O[C@H]2[C@@H]1C	0
Oc1c(Br)cc(Br)cc1Oc1ccc(Br)cc1Br	10
C#CCOCCOCCOCCNc1nc(N2CCN(C(=O)[C@H](CCCCN)n3cc(C(N)CO)nn3)CC2)nc(N2CCN(C(=O)[C@H](CCC(=O)O)n3cc(C(N)[C@H](C)CC)nn3)CC2)n1 (stereo partly specified)	11
O=S(=O)(/N=C(/Nc1ccc(F)cc1F)c1ccccc1)c1ccc(Br)cc1	1
O=C1N[C@@H](Cc2cn(S(=O)(=O)c3c(F)c(F)c(F)c(F)c3F)c3ccccc23)C(=O)N[C@H]1Cc1ccccc1	1

Part of the list above, as labelled records.
> O=S(=O)(/N=C(/Nc1ccc(F)cc1F)c1ccccc1)c1ccc(Br)cc1
  BJeLR lethal: 1

> CN(c1ccccc1)c1ccc(/C=c2\s/c(=C(/C#N)C(=O)C(C)(C)C)n(Cc3ccco3)c2=O)cc1
  BJeLR lethal: -1

Later entries.
SMILES	BJeLR lethal
CCN1C(=O)/C(=C\c2ccc(-c3cccc(C(=O)OC)c3)o2)SC1=Nc1ccc(C(=O)O)cc1	16
O=[N+]([O-])c1ccc(-c2nnc(S)n2-c2ccccc2)cc1	-3
NC[C@@]12CCCC1C1CCC2C1 (stereo partly specified)	3
Cc1sc(/C=C2\C(=O)ON=C2c2ccccc2)cc1Br	-1
C/C(=N\O)c1oc2ccc3c(C)cc(=O)oc3c2c1C	11
O=C(O)CCC(=O)c1ccc2ccc3cccc4ccc1c2c34	-7
CN(C)c1ccc(/C=C/c2cc[n+]([O-])cc2)cc1	-1
COC(=O)c1cnn(-c2ccccc2)c1/C=N/NC(=S)Nc1ccc(Cl)cc1	-7
C/C=C/C(=O)Nc1cccc(C2=NOC3(C2)C[C@H](C(N)=O)N(C(=O)c2ccccc2C(=O)c2ccccc2)C3)c1 (stereo partly specified)	1
Cc1c(NC(=O)c2c(N)n(-c3ccccc3)c3nc4ccccc4nc23)c(=O)n(-c2ccccc2)n1C	-25
COC/C=C/C1=CC2=CC(=O)C(C)(OC(=O)c3cnc4ccccc4n3)C(=O)C2=CN1c1ccc(CO)cc1 (stereo unspecified)	-4
Cc1onc(-c2c(Cl)cccc2Cl)c1C(=O)n1nnc2ccccc21	-4
CCc1nccn1C(=O)c1cnn2c(C(F)F)cc(-c3ccccc3)nc12	0
Cc1ccc2c(c1)=C/C(=C\c1c(O)[nH]c(=S)[nH]c1=O)C(=O)N=2	8
CCOC(=O)C1=c2/c(=C/c3ccccc3OC)c(N)c(C#N)n2C(=O)C(c2ccccc2OC)S1 (stereo unspecified)	-5
COc1ccc2c(c1)/C(=N/N1C(=O)c3ccccc3C1=O)C(=O)N2	-1
O=C(c1ccco1)[C@@H]1[C@@H]2C(=O)N(c3ccc(F)cc3)C(=O)[C@@H]2C2c3ccccc3C=CN21 (stereo partly specified)	3
O=C(O)C1OC(Oc2c(-c3ccc(O)c(O)c3)oc3cc(O)cc(O)c3c2=O)C(O)C(O)C1O (stereo unspecified)	6
COc1ccc(N/C(=C(/C(Cl)=C(Cl)Cl)[N+](=O)[O-])n2nnc3ccccc32)cc1	0
C#CCOCCOCCOCCNc1nc(N2CCN(C(=O)[C@H](CCCCN)n3cc(C(N)CO)nn3)CC2)nc(N2CCN(C(=O)[C@H](CCC(=O)O)n3cc(C(N)Cc4ccc(O)cc4)nn3)CC2)n1 (stereo partly specified)	10
CCCCC/C=C\C/C=C\C/C=C\C/C=C\CCCC(=O)Nc1ccc(O)cc1	6
O=C(/C=C/c1ccc(O)c(O)c1)O[C@H](Cc1ccc(O)c(O)c1)C(=O)O	2
C[C@H]1CC[C@H]2C(=O)N3[C@H](c4cccc(N5CCCC5=O)c4)[C@@H](C)CC[C@H]3C(=O)N2[C@@H]1c1cccc(N2CCCC2=O)c1	15
Cc1cc(C(=O)O)ccc1-n1c(C)ccc1C	9
CC[C@@H]1CC=C[C@H]2[C@H]1C(=O)N(Cc1ccccc1)[C@H]2c1cc(C)ccc1F	8
Next section.
SMILES	BJeLR lethal
N#CC1=C(N)SC(N)=C(C#N)C1CCC1CCCCC1	1
Cn1c2ccccc2c(=O)n2c(=O)c3ccccc3cc12	-1
Cn1c(=O)[nH]c(=O)c2c1nc(Br)n2C/C=N/NC(N)=S	0
CCOC(=O)c1c(C)[nH]c(C2=NNC(=Nc3cccc(Cl)c3)SC2)c1C	-20
c1ccc(Cn2c(-c3cccs3)nc3nc4ccccc4nc32)cc1	-1
CC1=C(C#N)C(=O)N(C2CCS(=O)(=O)C2)C(=O)/C1=C\c1ccco1 (stereo unspecified)	10
CC(C)Cn1c(N)c(C(=O)CSc2nc3ccccc3c(=O)n2CCCN2CCOCC2)c(=O)n(C)c1=O	-13
O=C(O)C1C2C=CC(C2)C1C(=O)NCc1ccccn1 (stereo unspecified)	0
O=C(OCCCOC(=O)c1ccccc1O)c1ccccc1O	-8
Nc1ncnc2c1ncn2[C@@H]1O[C@H](CO)C[C@@H]1O	-1
Cc1ccc(C)n1-c1ccc(C(=O)O)cc1	4
C/C(=C\c1ccco1)C1Nc2cccc3cccc(c23)N1	1
Fc1ccccc1Cn1cnc(NC(=S)NCCc2ccccc2)n1	0
CCn1cc(C(=O)O)c(=O)c2cc(F)c(N3CCN(S(=O)(=O)c4ccc(Br)cc4)CC3)cc21	9
COc1ccc(OC)c2sc(N(CCCN(C)C)C(=O)c3ccc(S(=O)(=O)N4CCc5ccccc5C4)cc3)nc12	89*
CCOC(=O)c1c2c(n(C)c1COC)C(=O)C(=O)c1ccc(Br)cc1-2	69*
CCN(CC)c1ccc2cc(C(N)=O)/c(=N\NC(=O)c3ccncc3)oc2c1	-3
CCc1ccc(-c2cc(-c3n[nH]c(=S)n3CC)c3ccccc3n2)cc1	1
CCc1nc2c(c(=O)c3ccccc3n2C)c(=O)n1CCc1ccc(OC)cc1	25
COc1cc(OC)c(C2N(C)c3ccccc3N2C)cc1OC	13
CCCc1cc(=O)[nH]c(/N=C(/NC(=O)c2ccccc2)Nc2ccc3c(c2)OCCO3)n1	-14
C/C=C\C=C/C(=O)Nc1cccc(C2=NOC3(C2)C[C@@H](C(N)=O)N(C(=O)c2ccccc2)C3)c1 (stereo partly specified)	4
COc1cccc(C=Nc2cccnc2)c1O	-7
CC(=O)C1=C(C)NC(SCC(=O)c2ccc(C)cc2)=C(C#N)C1c1ccco1 (stereo unspecified)	-18
COC(=O)C1=C(C)N(Cc2ccccc2)C(=NCCCCO)N[C@H]1c1ccccc1	3

4 entries from above, reformatted:
Cn1c2ccccc2c(=O)n2c(=O)c3ccccc3cc12
  BJeLR lethal: -1

Cn1c(=O)[nH]c(=O)c2c1nc(Br)n2C/C=N/NC(N)=S
  BJeLR lethal: 0

CCOC(=O)c1c(C)[nH]c(C2=NNC(=Nc3cccc(Cl)c3)SC2)c1C
  BJeLR lethal: -20

c1ccc(Cn2c(-c3cccs3)nc3nc4ccccc4nc32)cc1
  BJeLR lethal: -1

(listing goes on)
SMILES	BJeLR lethal
CC(/C(O)=C(\C#N)c1nc2ccccc2n1C)N1C(=O)c2ccccc2C1=O (stereo unspecified)	-7
CC12OC1C1(O)CCCC1=CC2=O (stereo unspecified)	8
O=C1[C@H]2[C@H](C=CC[C@H]2C(=O)N2CCOCC2)CCN1Cc1ccc(Cl)c(Cl)c1	-1
COc1ccc(S(=O)(=O)n2nc(C)c(S(=O)(=O)N3CCOCC3)c2C)cc1OC	5
COC(=O)C/C=C/[C@@H](C)[C@@H](/C=N/OC[C@H]1O[C@H](c2ccccc2)C=C[C@@H]1Oc1ccc(OC)cc1)OC	2
Cc1cccc(NS(=O)(=O)c2cc(NC(=O)CC(=O)c3ccc([N+](=O)[O-])cc3)ccc2C)c1	-2
Cc1ccc2cccc(NS(=O)(=O)c3ccccc3)c2n1	69*
O=C1CC(c2ccc(Br)cc2)NC(c2ccc(Br)cc2)C1c1ccccc1 (stereo unspecified)	2
Cn1c(=O)c(C(=O)COC(=O)c2cc(-c3ccco3)nc3ccccc23)c(N)n(Cc2ccccc2)c1=O	-4
Cn1c(N)c(C(=O)COC(=O)c2cc(-c3ccccc3)nc3ccccc23)c(=O)n(C)c1=O	1
CCOC(=O)C1=C(N)n2c(s/c(=C/c3ccccc3)c2=O)=C(C(=O)OCC)C1c1ccccc1 (stereo unspecified)	-7
C/C(CC(=O)Nc1ccccn1)=N\NC(=O)c1ccncc1	-1
CCc1ncc(C)[nH]1	3
CCC(C(=O)O)n1nnc(-c2ccc(OCc3ccccc3)c(OC)c2)n1 (stereo unspecified)	12
O=C1C=CC(=O)N1c1ccc(I)cc1Cl	-4
CCOc1ccc2cc(C#N)c(SCC(=O)NC(C)CC)nc2c1 (stereo unspecified)	-16
N#Cc1c(-c2ccncc2)c2c([nH]c1=O)-c1ccccc1OC2	1
CN1C(=O)N(C)C(=O)C2(Cc3cc(N)ccc3N3CCN(c4ccccc4F)CC32)C1=O (stereo unspecified)	0
CC1C2(C)OCC(C#N)(C(=N)O2)C1(C#N)C#N (stereo unspecified)	-7
NC(=O)C1CCN(C(=O)c2ccc3c(=O)n(Cc4ccco4)c(SCC(=O)c4ccc(F)cc4)nc3c2)CC1	3
C[C@H](NC(=O)OC(C)(C)C)C(=O)N/N=C/c1ccc2nccnc2c1	0
O=C(COc1ccccc1)Nc1ccc(Cl)cc1Cl	0
Cc1ccc(N2C(=O)c3ccccc3C2O)nc1 (stereo unspecified)	70*
COC(=O)[C@@]1(Cc2ccc(F)cc2)[C@H]2c3cc(C(=O)N(C)C)n(CCSCCO)c3C[C@H]2CN1C(=O)c1ccccc1	0
Cc1ccccc1/C=C/C(=O)c1ccc([N+](=O)[O-])o1	18
(more compounds)
SMILES	BJeLR lethal
Cc1cc(Cl)c(OCCCCNC(C)(C)C)c(Br)c1	6
C(=N\Nc1nc(Nc2ccccc2)nc(N2CCCCC2)n1)/c1ccco1	-11
O=Nc1c(-c2cccc([N+](=O)[O-])c2)nc2ncccn12	14
COc1ccc(/C=C2/C(=O)NC(=O)N(C3CCCCC3)C2=O)cc1CSc1ccccn1	-3
COc1ccc(/C=C/c2c(-c3cccc(C)c3)oc3ccc(-c4ccc5c(c4)OCO5)cc23)cc1	-8
O=C(O)c1ccc(Cl)c2c1C1C=CCC1C(c1ccccn1)N2 (stereo unspecified)	-7
COc1cc(/C=C/C(=O)Nc2ccccc2C(F)(F)F)cc(OC)c1OC	-3
O=c1[nH][nH]c(=S)n1C1CCCCC1	0
CC(=O)Oc1ccc(C23CC4CC(CC(C4)C2)C3)cc1C(=O)O	-2
CCOC(=O)C1=C(C)NC2=C(C(=O)CCC2)C1c1ccsc1 (stereo unspecified)	1
CCOC(=O)C1=C(C)NC(C)=C(C(=O)OCC)C1c1ccccc1/C=C/C(=O)OC(C)(C)C	4
COc1ccc2cc1Oc1ccc(cc1)C[C@H]1c3cc(c(OC)cc3CCN1C)Oc1c(O)c(OC)cc3c1[C@H](C2)N(C)CC3	6
O=C(Nc1ccc(Cl)c([N+](=O)[O-])c1)Nc1nc2ccccc2s1	5

6 structures from above, sorted by heavy-atom count, rising.
SMILES	BJeLR lethal
O=c1[nH][nH]c(=S)n1C1CCCCC1	0
Cc1cc(Cl)c(OCCCCNC(C)(C)C)c(Br)c1	6
CC(=O)Oc1ccc(C23CC4CC(CC(C4)C2)C3)cc1C(=O)O	-2
COc1ccc(/C=C2/C(=O)NC(=O)N(C3CCCCC3)C2=O)cc1CSc1ccccn1	-3
CCOC(=O)C1=C(C)NC(C)=C(C(=O)OCC)C1c1ccccc1/C=C/C(=O)OC(C)(C)C	4
COc1ccc2cc1Oc1ccc(cc1)C[C@H]1c3cc(c(OC)cc3CCN1C)Oc1c(O)c(OC)cc3c1[C@H](C2)N(C)CC3	6

Source: PubChem BioAssay (Broad Institute)
